# Calb biofilm kill = clotrimazole potentiators killing C. albicans biofilm, primary screen, 4-compound mixtures; C. albicans biofilm persisters + clotrimazole, fluorescence viability; primary screen in compound mixtures of four per well; inhibition, % at 7.6 µM; 120,000 compounds, 0.02% hits; AID 1242, 2008;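 active = inhibition above 30.3% in the primary screen of four-compound pools, then above 30% when the compound was retested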;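 also: compounds exposed to preformed 24 h biofilms for 48 h; the number belongs to the whole pool; some results filed as inactive read as strong as hits; inactives centre near 12; 0% = biofilm with clotrimazole alone and 100% = kill control; retested singly at about 60 µM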
#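 Test system: C. albicans CAF4-2 wild-type biofilms; buffer or medium: RPMI/MOPS medium, pH 7.0; schedule: 24 h biofilm formation, then 48 h compound exposure, 37 °C; detection: Alamar Blue fluorescence; measure: percent inhibition of biofilm viability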
# An asterisk follows results filed as active. The list is partial; the hit share may differ from the screen's.
SMILES | Calb biofilm kill
CCCNC(=O)c1ccc(C2SCC(=O)N2Cc2ccccc2)cc1 (stereo unspecified) | 13
Cc1cc(NC(=O)CCN2C(=O)C3C4CCC(C4)C3C2=O)cc(C)c1Br (stereo unspecified) | 5
O=C(NNS(=O)(=O)c1ccc(CCCl)cc1)C(O)(c1ccccc1)c1ccccc1 | -8
CCOc1ccc2[nH]c(=O)c(C(c3nnnn3Cc3ccco3)N3CCN(C)CC3)cc2c1 (stereo unspecified) | 17
Cc1ccc(CN=C(N)Nc2nc(C)cc(C)n2)cc1 | 17
O=C(NCCc1nnc2ccc(NCc3cccnc3)nn12)c1ccccc1F | 16
CCO[C@@H]1OC(C(=O)NCc2ccccc2)=C[C@H](C2CCCCC2)[C@H]1CCCO | 20
O=C(NC1CCc2ccccc21)C1CCN(S(=O)(=O)c2ccc(Cl)cc2)CC1 (stereo unspecified) | 12
Fc1ccc(N2CCN(c3ncnc4c3nnn4Cc3ccccc3Cl)CC2)cc1 | 17
CC(=O)/C(C#N)=C1\NC(=O)C(Cc2cc(Cl)ccc2Cl)S1 (stereo unspecified) | 8
Cc1ccc(N/N=C2\CCS(=O)(=O)c3sccc32)cc1 | 8
Cc1ccc(F)cc1NC(=O)c1ccc(NS(=O)(=O)c2ccc(Br)s2)cc1 | 7
CC1COc2ccccc2N1C(=O)c1ccc(Cl)nc1 (stereo unspecified) | 10
CN1Cc2c(N3CCOCC3)nc3sc(C(=O)c4ccc(Br)cc4)c(N)c3c2CC1(C)C | -7
C=CCN(c1ccccc1)S(=O)(=O)c1cccc(C(=O)Nc2nc3ccccc3[nH]2)c1 | 13
CCNC(=O)NCCNC(=O)c1cc(OCC(F)(F)F)ccc1OCC(F)(F)F | 2
COCc1cc(=O)[nH]c(/N=C(\N)Nc2cccc(Cl)c2)n1 | 2
O=S(=O)(O)c1ccc(N2N=C(c3ccccc3)CC2c2ccccc2)cc1 (stereo unspecified) | 10
COc1cc(NC(=O)c2cc(Br)cc(C)c2OC)ccc1NC(=O)C(C)C | 20
CCCOc1ccccc1N/C(N)=N/c1nc(C)cc(C)n1 | 29
Cc1ccnc2nc(C(=O)NCc3ccccc3)nn12 | 10
COc1ccccc1/C=C1\SC(=S)N(CC(=O)Nc2nnc(C)s2)C1=O | 18
Cc1ccc(S(=O)(=O)/N=C(/NC(=S)Nc2c(C)n(C)n(-c3ccccc3)c2=O)c2ccccc2)cc1 | 17
COC(=O)CCC(=O)OC1(C)C(=O)C=C2C=C(C3CC3)N(CCCOC(C)C)C=C2C1=O (stereo unspecified) | 24
CC(=O)c1cccc(N(C(=O)Cn2nnc3ccccc32)C(C(=O)NCc2ccccc2)c2ccccn2)c1 (stereo unspecified) | 15
COc1ccccc1NC(=O)Oc1cccc(OC(=O)c2ccccc2)c1 | 5
Cc1cc(C(F)F)n2ncc(C(=O)NCc3ccccc3F)c2n1 | 15
COCCNC(=O)C(c1ccc(O)cc1)N(C(=O)CCC(=O)Nc1nccs1)c1cccc(C)c1 (stereo unspecified) | 11
Cc1ccccc1CSc1nn2c(=O)c(C)nnc2s1 | 29
Cc1ccc(CC(=O)Nc2cc([N+](=O)[O-])ccc2F)cc1 | 4
COC(=O)C1=CN(Cc2ccc(OC)cc2)C=C(C(=O)OC)C1c1cccs1 | 25
CC(=O)N1CCN(c2ccc(NC(=S)NC(=O)/C=C/c3ccccc3)cc2)CC1 | -4
O=C(CN1CCN(c2ccc(O)cc2)CC1)NC(=O)NCc1ccco1 | 18
COC(=O)C1=C(O)/C(=C\c2sccc2C)N=C1C | 2
NC(=O)C1(N2CCCCC2)CCN(Cc2nc(-c3cccs3)no2)CC1 | 22
O=[N+]([O-])c1cccc(-c2n[nH]c(=S)n2-c2ccccc2)c1 | 18
O=C(Cc1ccc(Cl)cc1)NCc1ccccc1Cl | 4
COc1cc2c(cc1OC)C1C(C(=O)Nc3ccccc3N3CCN(C)CC3)c3ccccc3C(=O)N1CC2 (stereo unspecified) | 17
Cc1cccc(NC(=O)c2ccc3nsnc3c2)c1C | 24
O=C(NNc1nc(Nc2ccccc2)nc(N2CCOCC2)n1)Nc1ccc(Cl)cc1 | 6
COc1cc(O)c(C(CC(=O)N2CCOCC2)c2ccc(N(C)C)cc2)c(OC)c1 (stereo unspecified) | 3
COC(=O)c1sccc1NC(=O)NC1CCCCC1 | 4
Cc1nc2cc(Cl)c(Cl)cc2n1CCCO | 11
O=[N+]([O-])c1ccc2cn(-c3ccccc3)nc2c1 | 18
Nc1ccc(S(=O)(=O)NC(=O)c2ccccc2)cc1 | 15
COc1ccc(C2CC(=O)C(C=NCCN3CCN(C(C)=O)CC3)=C(O)C2)cc1 (stereo unspecified) | 12
CC(=O)Nc1cccc(OCCCNC(=O)c2cccc3ccccc23)c1 | -3
CN(CC(=O)Nc1ccc(N2CCOCC2)cc1)C(=O)CC(c1ccccc1)c1ccccc1 | 21

# (continued)
structure	Calb biofilm kill
Cc1cccc(N2CCN(C(=O)Cn3cnc4c3c(=O)n(C)c(=O)n4C)CC2)c1C	16
Cc1ccccc1Cn1cc(C)c(=O)[nH]c1=O	7
O=C(Cc1ccccc1)c1nnc(-c2ccccc2)o1	11
CS(=O)(=O)N1CCN(c2ccc([N+](=O)[O-])cc2C(F)(F)F)CC1	28
COc1ccc(N(CC(=O)NCCC2=CCCCC2)S(=O)(=O)c2ccc(C)cc2)cc1	11
CC(C)(C)c1ccc(OCC(=O)N/N=C/C2CC=CCC2)cc1 (stereo unspecified)	10
CCCc1noc2c1C(c1cc(Br)ccc1F)C(C#N)=C(N)N2 (stereo unspecified)	8
CCN(C(=O)CSc1nncn1-c1ccccc1)c1c(N)n(Cc2ccccc2)c(=O)[nH]c1=O	20
CCOC(=O)c1cc(-c2csc(N/N=C/c3ccccc3Cl)n2)on1	12
CCC(C)NCC(O)(c1ccc(Cl)cc1)c1ccc(Cl)cc1 (stereo unspecified)	17
COc1cc(C(=O)NCC(=O)N/N=C/c2cccs2)cc(OC)c1OC	18
COc1ccccc1/C=C/C=C1\Oc2c(ccc(O)c2CN(C)C)C1=O	19
CCN(CC)CCCOC(=O)c1ccc(OC)cc1O	9
Cc1c(Br)c([N+](=O)[O-])nn1CC(=O)NCc1ccccc1	9
N#Cc1ccc(OCC(=O)NC2=NCCS2)cc1	10
Cc1c(Cl)cnc(NC(=O)CSc2nncs2)c1Cl	22
O=C(Cc1ccc(-c2ccccc2)cc1)NC1CCCC1	-6
CCOP(=O)(CN(CC)C(=O)c1ccccc1Br)OCC	30
COc1ccc(Cl)cc1C(=O)NNC(=O)CSc1nnc2ccccn12	6
CCOC(=O)c1cnc(SCC)[nH]c1=O	18
C=CCNC(=S)NN=C1CCCCCCC1	-6
COc1ccc(NS(=O)(=O)c2ccc3nc(COc4ccc5ccccc5c4)[nH]c3c2)cc1	14
S=c1[nH]cnc2sc(Nc3ccccc3)nc12	5
O=C(COC(=O)CCSc1ccc(Cl)cc1)NCc1ccco1	16
COc1cccc(NC(=O)CSc2nc3ccsc3c(=O)n2-c2ccc(C(=O)O)cc2)c1	13
COc1cc(OC)c2c(-c3ccccc3)cc(=O)oc2c1C(CCN1CCCCC1)c1ccc2c(c1)OCO2 (stereo unspecified)	14
CC(C)OC(=O)/C(=C/c1ccco1)c1ccccc1	3
Cc1ccc(-n2c(SCC(=O)Nc3ccc(N4CCOCC4)cc3)nc3ccccc3c2=O)cc1	16
Cc1nn(C)c(C(=O)NNC(=S)NC2CCCCC2)c1Br	13
Cc1ccc(OCCC(=O)Nc2ccc(F)c(F)c2)cc1	12
COCCNC(=O)CSc1nc2ccccc2c(=O)n1CCC(=O)NCCc1ccc(OC)c(OC)c1	7
COc1ccc(CN2CCN(Cc3cccc4nonc34)CC2CCO)c(C)c1C (stereo unspecified)	14
CCC1(C)NC(=O)N(CC(=O)Nc2sc3c(c2C(=O)OC)CCCCC3)C1=O (stereo unspecified)	14
Cc1cc([N+](=O)[O-])c(C)cc1-c1ccc(/C=N/NC(=O)c2cccnc2)o1	-4
O=C(NNC(=O)c1ccc([N+](=O)[O-])cc1)c1ccncc1	0
CCOc1ccc(CCN2CN(C3CCCCC3)CNC2=S)cc1OCC	14
S=C(NCCC1=CCCCC1)NCc1ccco1	12
Fc1ccc(OCc2nnc(SCCN3CCOCC3)o2)cc1	14
COc1ccccc1-c1nnc(SCC(=O)O)n1-c1ccc(C)cc1	15
COc1ccc(N(C)C(=O)c2onc3c2CCCC3)cc1	7
CCOc1ccccc1NC(=O)Cc1coc2ccc(C)cc12	5
c1ccc(-c2nc(N3CCOCC3)cc(N3CCOCC3)n2)cc1	20
Cc1cccc(NC(=S)N(Cc2cccc(Br)c2)CC2CCC(C(=O)O)CC2)c1 (stereo unspecified)	8
Cc1cccc(C(=O)OCC(=O)NCc2cccs2)c1	7
O=C(NCc1cccc(C(F)(F)F)c1)C1CC(c2ccccc2C(F)(F)F)=NO1 (stereo unspecified)	16
Cc1cccc(CSc2nn3c(=O)c(C)nnc3s2)c1	8
CC1CC2(CCCCC2)Nc2ccc3ccccc3c21 (stereo unspecified)	1
O=C(Nc1ccc(N2CCN(c3ccc(C(F)(F)F)cn3)CC2)nc1)c1cccs1	26
CCn1nnc(NC(=O)C(c2ccccc2)c2ccccc2)n1	25
COC(=O)c1c(NC(=O)C2Cc3ccccc3C(=O)O2)sc2c1CCCC2 (stereo unspecified)	18

# Continuation.
structure	Calb biofilm kill
CCCCn1c(=O)[nH]c(=O)c2c1nc(-c1ccc3ccccc3c1)n2CC	5
O=C(Nc1cccc(Cl)c1)N1N=CCC1c1ccccc1 (stereo unspecified)	26
CCOC(=O)N1CCN(c2cc(C)c([N+](=O)[O-])cc2F)CC1	6
COc1cc(OC)c2ccc(=O)oc2c1C(CC(=O)N1CCOCC1)c1ccc(N(C)C)cc1 (stereo unspecified)	5
CC(=O)c1cc(C#N)c(SCC(=O)Nc2nccs2)nc1C	23
Cc1ccc(-c2nnn(CC(=O)N(Cc3ccco3)C(C(=O)NC(C)(C)C)c3ccc(C)o3)n2)o1 (stereo unspecified)	11
COC(CNC(=O)C(=O)NCC1OCCN1C(=O)c1ccc(Cl)cc1)OC (stereo unspecified)	11
CC(=O)c1ccc2c(c1)CC(C)C(=O)N2C (stereo unspecified)	16
CC(NC(=O)C1CCC(CNS(=O)(=O)c2ccccc2)CC1)c1ccc2c(c1)OCCO2 (stereo unspecified)	14
CNc1nc2c(Cl)cc(Cl)cc2s1	12
COC(=O)c1ccc(-n2cncn2)c([N+](=O)[O-])c1	10
O=C(NC(=S)NCCC1=CCCCC1)c1ccco1	13
O=C(Cn1c(COc2ccccc2)nc2ccccc21)Nc1cc(Cl)cc(Cl)c1	14
CCCNS(=O)(=O)c1ccc(OCC(=O)Nc2ccc3c(c2)OCO3)cc1	21
COc1ccc(C(=O)NC(=S)N2CCNC(=O)C2)cc1Br	-10
O=S1(=O)CC/C(=N\O)c2ccccc21	4
O=C1NC(=O)C(Cc2ccccc2)(c2cccnc2)N1 (stereo unspecified)	-10
COc1cccc(CC2(CO)CCCN(CC3=Cc4cc(Cl)ccc4OC3)C2)c1 (stereo unspecified)	7
CC1(C(=O)NC(=S)NNC(=O)c2ccncc2)CCCCC1	17
CC(C)CNS(=O)(=O)c1ccc(CCC(=O)NCCC2=CCCCC2)cc1	15
CCc1ccc(C(c2c(C)nn(-c3ccccc3)c2N)c2c(C)nn(-c3ccccc3)c2N)cc1	17
O=C(O)CC(NC(=O)C12CC3CC(CC(C3)C1)C2)c1ccc(OC2CCCC2)cc1 (stereo unspecified)	12
COc1cccc(/C=C/C(=O)OCC(=O)NCc2ccc(Cl)cc2)c1	6
Cc1ccc(C2=NOC(C)(c3nnc(-c4ccc(Cl)cc4)o3)C2)cc1 (stereo unspecified)	14
O=C(CCc1ccccc1)Nc1nc2c(F)cc(F)cc2s1	-2
CC1=C(C(=O)Nc2cccc([N+](=O)[O-])c2)C2(CCC(C)CC2)OC1=O (stereo unspecified)	6
CCOC(=O)C1CCN(CC(O)COCc2ccc3c(c2)OCO3)CC1 (stereo unspecified)	7
CCn1c2ccccc2c2cc(NC(=O)COC(=O)c3cc(S(=O)(=O)N4CCCCC4)ccc3Cl)ccc21	14
O=C(/C=C/c1cccc([N+](=O)[O-])c1)N1CCN(c2ccc(F)cc2)CC1	11
COc1ccc(C(=S)N2CCN(c3ccccc3C)CC2)cc1	9

# Already shown: entries from further up.
structure	Calb biofilm kill
O=C(NC(=S)NCCC1=CCCCC1)c1ccco1	13
O=C(Cn1c(COc2ccccc2)nc2ccccc21)Nc1cc(Cl)cc(Cl)c1	14
CCCNS(=O)(=O)c1ccc(OCC(=O)Nc2ccc3c(c2)OCO3)cc1	21
COc1ccc(C(=O)NC(=S)N2CCNC(=O)C2)cc1Br	-10
O=S1(=O)CC/C(=N\O)c2ccccc21	4
O=C1NC(=O)C(Cc2ccccc2)(c2cccnc2)N1 (stereo unspecified)	-10
COc1cccc(CC2(CO)CCCN(CC3=Cc4cc(Cl)ccc4OC3)C2)c1 (stereo unspecified)	7
CC1(C(=O)NC(=S)NNC(=O)c2ccncc2)CCCCC1	17
CC(C)CNS(=O)(=O)c1ccc(CCC(=O)NCCC2=CCCCC2)cc1	15
CCc1ccc(C(c2c(C)nn(-c3ccccc3)c2N)c2c(C)nn(-c3ccccc3)c2N)cc1	17
O=C(O)CC(NC(=O)C12CC3CC(CC(C3)C1)C2)c1ccc(OC2CCCC2)cc1 (stereo unspecified)	12
COc1cccc(/C=C/C(=O)OCC(=O)NCc2ccc(Cl)cc2)c1	6
Cc1ccc(C2=NOC(C)(c3nnc(-c4ccc(Cl)cc4)o3)C2)cc1 (stereo unspecified)	14
O=C(CCc1ccccc1)Nc1nc2c(F)cc(F)cc2s1	-2
CC1=C(C(=O)Nc2cccc([N+](=O)[O-])c2)C2(CCC(C)CC2)OC1=O (stereo unspecified)	6
CCOC(=O)C1CCN(CC(O)COCc2ccc3c(c2)OCO3)CC1 (stereo unspecified)	7

# Source: PubChem
